UUG fidelity: yeast start codon fidelity modulation. hit rate 0.13% among 350,000. activity score, % at 18.7 µM. AID 602363. S. cerevisiae UUG-firefly luciferase reporter, luminescence/redox ratio;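 active = replicate mean at a twofold rise or more, about +100% in these data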;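 also: firefly luciferase made from a UUG start codon reports start codon fidelity; reporter light over untreated wells divided by growth signal over untreated wells; some hits fall short of that in this replicate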
CSC inhib: cancer stem cell inhibition | cancer stem cell-like cells viability, luminescence | inhibition, % at 7.5 µM | hit rate 1.1% among 300,000;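 active = mean at 75% or more and at least half the replicates too; inconclusive = mean and replicates disagree; tested in HMLE shEcad cells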;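 also: 0% = median of negative and 100% = median of positive control wells; the first replicate is given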
HIV Env fusion: blocks HIV Env-driven cell-cell fusion; HeLa-JRFL Env/CEM21 cell fusion, luciferase; inhibition, % at 12.3 µM; hit rate 1.1% among 360,000;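 active = mean replicate inhibition score of at least 50 and every replicate individually at or above 50; inconclusive = only one of the two criteria met; inactive = mean below 50 and not all replicates reaching 50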;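 also: 0% = plate neutral controls and 100% = maraviroc near 300 nM; one replicate is shown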
PABP polyA inh: blocks human PABP binding to poly(A) RNA; P11940; fluorescence polarization; inhibition, % at 35 µM; hit rate 1% among 290,000; AID 2014;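 active = 50% or more with normal probe brightness, or confirmed in later tests; inconclusive = above 50% with abnormal brightness, or retests that disagree; inactive = below 50% or failed in later tests; about a fifth of its hits are not listed in these tables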;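 also: calls also rest on retests at 20 µM and on dose response follow-up; controls were probe without protein and protein plus probe with vehicle; some compounds called inactive have numbers as strong as hits; many hits fall short of the cut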
Target sequence (P11940 whole entry, looked up): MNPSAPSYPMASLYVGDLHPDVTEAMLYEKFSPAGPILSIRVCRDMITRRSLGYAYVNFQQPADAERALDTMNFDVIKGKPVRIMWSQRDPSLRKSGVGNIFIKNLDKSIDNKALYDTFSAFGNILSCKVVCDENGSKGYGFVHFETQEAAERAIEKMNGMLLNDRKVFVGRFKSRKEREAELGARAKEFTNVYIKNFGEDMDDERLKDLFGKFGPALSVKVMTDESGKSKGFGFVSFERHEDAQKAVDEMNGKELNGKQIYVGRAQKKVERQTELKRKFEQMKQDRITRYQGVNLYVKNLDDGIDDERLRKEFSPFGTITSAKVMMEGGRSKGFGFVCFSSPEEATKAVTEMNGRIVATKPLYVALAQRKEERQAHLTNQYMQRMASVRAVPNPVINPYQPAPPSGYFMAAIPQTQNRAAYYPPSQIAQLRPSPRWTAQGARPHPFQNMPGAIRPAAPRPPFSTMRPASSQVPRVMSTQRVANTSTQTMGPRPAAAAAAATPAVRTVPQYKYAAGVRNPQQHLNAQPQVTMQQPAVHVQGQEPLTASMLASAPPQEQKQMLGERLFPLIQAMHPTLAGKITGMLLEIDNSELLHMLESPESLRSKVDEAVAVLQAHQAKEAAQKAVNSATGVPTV
eIF4H inh: inhibitors of RNA binding by human eIF4H; eIF4H fluorescence polarization binding assay; hit rate 0.94% among 290,000; AID 2012; Q15056; inhibition, % at 35 µM;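 active = 50% or more with normal probe brightness, or confirmed in later tests; inconclusive = above 50% with abnormal brightness, or retests that disagree; inactive = below 50% or failed in later tests; about a fifth of its hits are not listed in these tables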;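 also: calls also rest on retests at 20 µM and on dose response follow-up; 0% = protein and probe with vehicle and 100% = probe without protein; strong numbers were not always called active; many hits fall short of the cut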
MT1-MMP act inh: inhibitors of human MT1-MMP activation; hit rate 0.061% among 360,000; GFP/RFP ratio change, % at 20 µM; P50281; HT1080 RFP-PRO-GFP cells, GFP/RFP ratio fluorescence, overnight; percent of plate control window, DMSO zero;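 active = GFP/RFP ratio change of at least 30% with cell ATP level not reduced by more than half and red fluorescence within 50% of control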; also: strong numbers were not always called active
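Assay system: HT1080 cells carrying an RFP-PRO-GFP reporter | Dosing: Single dose of 20 µM compound, 1% DMSO final | Incubation: Cells overnight before dosing, compound overnight, 37 °C, 5% CO2 | Evaluation: GFP/RFP fluorescence ratio | Control set: DMSO and RFP-L50D-GFP cell wells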
Rce1 inh: inhibitors of yeast Ras-converting enzyme. Q03530. yeast membranes, quenched prenylated peptide cleavage fluorescence. calls only. hit rate 0.27% among 290,000. AID 2563;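 active = fall in fluorescence gain of 50% or more versus controls, with final raw signal at or below 3038400; inconclusive = same 50% fall but final raw signal above 3038400; inactive = fall in fluorescence gain under 50%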;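 also: plate controls were neutral control wells for no effect and wells lacking membranes for full effect; tested at 10 µM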
Target sequence (Q03530 whole entry, looked up): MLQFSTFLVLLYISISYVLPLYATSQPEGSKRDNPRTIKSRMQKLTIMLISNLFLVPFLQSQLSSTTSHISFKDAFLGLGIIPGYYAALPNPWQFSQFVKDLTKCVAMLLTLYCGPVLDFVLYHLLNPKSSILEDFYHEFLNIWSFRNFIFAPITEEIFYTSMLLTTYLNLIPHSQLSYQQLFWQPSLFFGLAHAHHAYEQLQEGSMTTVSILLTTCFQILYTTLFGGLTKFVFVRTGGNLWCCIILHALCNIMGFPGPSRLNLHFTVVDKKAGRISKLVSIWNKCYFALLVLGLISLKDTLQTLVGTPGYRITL
eIF4H inh retest: second read-out of eIF4H inh, no call of its own (marks repeat the call); inhibition, %; compound at 20 µM; confirmation average;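 mean of two retest wells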
PABP polyA inh retest: further read-out of PABP polyA inh, marked with its call; inhibition, %; compound at 20 µM; confirmation repeats;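 mean of two retest wells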
MT1-MMP act inh RFP: further read-out of MT1-MMP act inh, marked with its call; RFP signal change, %; measured here: RFP expression control read;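 0 = vehicle wells; hits needed this value within 50% of zero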
The depositor's hits bear a star; i = inactive; ? = inconclusive; · = no result given. Outcome played no part in choosing rows, and some 3% of all compounds hit somewhere here.

SMILES | UUG fidelity | CSC inhib | HIV Env fusion | PABP polyA inh | eIF4H inh | MT1-MMP act inh | MT1-MMP act inh RFP | Rce1 inh | others
CCOC(=O)c1ccc2ncc(C(=O)OCC)c(NCCCN3CCOCC3)c2c1 | -11 | 2 | -21 | 12 | 3 | 0 | -2 | i
CSc1nc(N)c2c3c(sc2n1)COC(C(C)C)C3 (centres undefined) | -8 | -40 | · | 2 | 5 | 5 | 1 | i
CCOc1ccccc1Nc1cc2n(c(=O)n1)CCc1cc(OC)c(OC)cc1-2 | · | -2 | 12 | 4 | -7 | -1 | 3 | i
O=C1C=CC(=O)N1c1ccccn1 | -3 | · | -23 | · | · | -2 | 7 | ·
COc1ccc(OCCSc2nc3ccccc3c(=O)[nH]2)cc1 | -3 | 16 | · | 3 | -6 | 5 | -6 | i
Cc1ccc(Cn2nnc3c(=O)n(CC(=O)NCC4CCCO4)cnc32)cc1 (centres undefined) | -5 | -7 | · | 11 | 1 | 1 | 0 | ·
CCCN1CCN(CCCNC(=O)Cn2nc(-c3ccccc3)ccc2=O)CC1 | -20 | -23 | -11 | -8 | -9 | 4 | 3 | i
COc1cccc(-c2nnc3n2N=C(c2cccc(Br)c2)CS3)c1 | -13 | -9 | 47 | -6 | -5 | 1 | 1 | i
COc1ccc(C(=O)NCC(=O)NC2=NCCS2)cc1 | -16 | -15 | -18 | -13 | -4 | 1 | 4 | i
COc1cc(NC(=O)COC(C)=O)c(C)cc1[N+](=O)[O-] | 6 | -14 | 18 | 3 | -15 | -1 | 1 | ·
CCC1Sc2ccc(S(=O)(=O)Nc3cc(OC)cc(OC)c3)cc2NC1=O (centres undefined) | 19 | 3 | 2 | -2 | -19 | 0 | -9 | i
CCC(=O)Nc1ccc(NC(=O)CSc2nnnn2Cc2ccccc2)cc1C | -10 | · | 2 | -1 | 14 | 0 | 4 | i
COc1ccc(Cl)cc1S(=O)(=O)N1CCN(CC(=O)C(C)(C)C)CC1 | -10 | 31 | · | 4 | 3 | 0 | 2 | i
COCCCNC(=O)C(CC(N)=O)NC(=O)OCc1ccccc1 (centres undefined) | -24 | 6 | -7 | -8 | -4 | -3 | 1 | i
CCOC(=O)C1=C(C)NC(C)=C(C(=O)OCC)C1C(=O)OCC(=O)NCc1ccco1 | 13 | -14 | -4 | · | · | -3 | -2 | ·
O=C(NCCCN1CCOCC1)c1cc(Cl)ccc1[N+](=O)[O-] | · | -18 | 0 | 2 | -11 | 0 | 0 | i
CCC(C)NC(=O)Nc1ccccc1C (centres undefined) | 14 | -15 | · | 3 | -5 | 1 | 2 | i
Cc1ccc(C(=O)NC2CCN(S(=O)(=O)c3ccccc3F)CC2)cc1 | -9 | -5 | -13 | 0 | -5 | -3 | -3 | i
O=c1cc2[nH]c3ccccc3c(=O)n2nc1-c1ccccc1 | 3 | -7 | · | -1 | 22 | 4 | -1 | i
CC(CNS(=O)(=O)c1ccc2c(c1)CC(=O)N2C)c1ccccc1 (centres undefined) | -7 | -2 | -2 | 8 | -1 | 0 | 6 | i
N=c1c(S(=O)(=O)c2ccc(Cl)cc2)cc2c(=O)n3ccccc3nc2n1CCN1CCOCC1 | 0 | -1 | -165 | 17 | 11 | -3 | 7 | i
COc1ccccc1OCCn1cc(/C=N/NC(N)=S)c2ccccc21 | -29 | 3 | 9 | -5 | 0 | 7 | -6 | i
COc1ccc(C(C)(C)C)cc1NC(=O)CCCN1C(=O)CN(C)C1=O | -16 | · | -20 | · | · | 1 | 0 | ·
CC(c1ccccc1)n1cnc2ccccc2c1=O (centres undefined) | -3 | -14 | 8 | -9 | -3 | 0 | -2 | i
COc1ccc(C(=O)Nc2ccc(S(=O)(=O)Nc3cc(C)nc(C)n3)cc2)cc1 | · | 18 | -5 | 10 | 16 | -3 | -3 | i
CCS(=O)(=O)NCCc1csc(C)n1 | -7 | -4 | · | -6 | -8 | 0 | 9 | i
COC(=O)c1ccc(C(=O)OC)c(NC(=O)C2CC2)c1 | · | -13 | -2 | -2 | 4 | -1 | 2 | i
Cc1cc(NC(=O)COC(=O)c2c(C)nn(-c3ccccc3)c2C)no1 | · | -2 | -47 | 1 | -2 | 4 | -3 | i
CCCc1cc(C(=O)N/N=C/c2ccc(C)o2)c2ccccc2n1 | -12 | · | -98 | -3 | 3 | -2 | -12 | i
O=C(N/N=C1/CCCc2ccccc21)C(c1ccccc1)c1ccccc1 | -14 | -3 | -19 | 3 | -11 | -4 | -2 | i
Cc1ccc(C(C)NC(=O)C2CCCO2)cc1C (centres undefined) | -9 | 3 | -6 | 28 | 7 | 0 | 0 | i
CC(C)Cn1c(N)c(C(=O)CSc2nnc(-c3ccco3)n2C)c(=O)n(C)c1=O | -9 | · | -67 | · | · | -1 | -2 | ·
Cc1ccc(CCNC(=O)CN2C(=O)COc3ccc(S(=O)(=O)N4CCOCC4)cc32)cc1 | -20 | -12 | 4 | -3 | -9 | -3 | 3 | i
CCCOc1ccc(/C=N/NC(=O)C(=O)Nc2ccccn2)cc1 | 3 | -3 | -53 | -6 | 0 | 2 | 0 | i
COc1cccc(/C=C2\SC(=S)N(CCCC(=O)N(CCO)c3ccccc3)C2=O)c1 | -33 | 20 | 9 | 2 | 25 | -4 | -3 | i
COc1ccc(C2=Nn3c(nnc3-c3ccccc3C(F)(F)F)SC2)cc1OC1CCOC1 (centres undefined) | -14 | 12 | -21 | · | · | -1 | -2 | ·
Cc1ccc(NS(=O)(=O)c2ccc(NC(=O)c3ccccc3C(=O)O)cc2)cc1C | -5 | 21 | 11 | · | · | -1 | -5 | ·
Cc1ccc([C@H]2C[C@@H](O)[C@H](n3cc(C4CC4)nn3)CN2C(=O)c2cccs2)cc1 | -11 | · | -27 | · | · | 0 | 0 | ·
O=C(O)c1cccc(NS(=O)(=O)c2ccc(Cl)c(C(=O)Nc3cccc([N+](=O)[O-])c3)c2)c1 | · | -2 | 2 | · | · | 2 | 2 | i
CCOC(=O)/C(=N\Nc1ccc(Cl)cc1)Sc1nnc(-c2ccc(OC)cc2)n1C | · | 2 | -18 | -12 | 5 | 0 | 0 | i
Clc1ccccc1OCCCCN1CCCCC1 | -14 | -41 | 6 | 1 | -12 | -1 | -1 | i
CC(=C1C(=O)c2ccccc2C1=O)N1CCN(Cc2ccccc2)CC1 | 9 | 1 | · | 1 | 3 | 3 | 4 | i
O=C(N/N=C/C=C/c1ccccc1[N+](=O)[O-])c1cccnc1 | · | -8 | -11 | -2 | 3 | 5 | 3 | i
Cc1nc(NNC(=O)c2ccc(Cl)cc2Cl)cc(-c2ccccc2)n1 | -12 | -4 | · | 2 | 0 | · | · | i
COc1ccc(N2CCN(C(=O)C3CCN(C(=O)c4cccc(Cl)c4)CC3)CC2)cc1 | 7 | 3 | -30 | 3 | 1 | 4 | 0 | i
CCN(CC)c1cc2nonc2c2nonc12 | -15 | -17 | -28 | -11 | -6 | 0 | 1 | i
CC(OC(=O)Cc1ccccc1[N+](=O)[O-])C(=O)Nc1ccc(Cl)cn1 (centres undefined) | -2 | -14 | -52 | · | · | -6 | 4 | i
O=C(Nc1nc(-c2cccs2)cs1)c1ccc([N+](=O)[O-])o1 | -25 | 90* | · | · | · | -3 | -16 | ·
CCSC1=N/C(=C\C=C2/Oc3ccccc3N2CC)C(=O)S1 | 12 | -24 | -16 | ? | ? | -77 | 2 | i
O=C(c1cccc([N+](=O)[O-])c1)N1CCCN(C(=O)c2cccc([N+](=O)[O-])c2)CC1 | -9 | -2 | · | 1 | -6 | 1 | 6 | i
O=C(O)C1Nc2c(Cl)cc(Cl)c(Cl)c2C2C=CCC12 (centres undefined) | -12 | -12 | -4 | · | · | 5 | 10 | i
COc1ccccc1N1CCN(CC(=O)Nc2nccs2)CC1 | 2 | · | 3 | 11 | 6 | -3 | -1 | i
COc1ccc(S(=O)(=O)Nc2c(O)c3ccccc3oc2=O)cc1 | -21 | 4 | -3 | -1 | -5 | 2 | 6 | i
O=C(O)c1ccc2c(c1)C(=O)N(c1ccc(C(=O)OCC(=O)c3ccccc3)cc1)C2=O | -8 | -9 | 1 | · | · | -3 | 1 | i
CNC(=O)c1[nH]cnc1C(=O)N[C@@H](CCCCNC(=O)OC(C)(C)C)C(=O)OC(C)(C)C | 6 | -10 | 3 | -4 | -14 | 1 | 3 | i
COc1ccc(-n2nc(C(=O)N3CCC(N4CCCCC4)CC3)c3c4ccccc4n(C)c3c2=O)cc1 | -9 | -12 | 5 | -2 | -12 | -4 | 3 | i
Cc1ccc(S(=O)(=O)NN2C(=O)/C(=C/c3ccc(F)cc3)SC2=S)cc1 | -1 | 0 | -9 | -1 | -5 | -3 | 0 | i
CC(CN1C(C)CCCC1C)OC(=O)c1ccc(Cl)cc1 (centres undefined) | · | -3 | 0 | -8 | 1 | -6 | 1 | i
NC(=O)C1CCN(CC(=O)N2N=CCC2c2ccccc2)CC1 (centres undefined) | -11 | -8 | 8 | 1 | -2 | 0 | 4 | ·
O=C(NOC(=O)c1c(F)cccc1Cl)c1ccc(Cl)c(Cl)c1 | -1 | -10 | -15 | 2 | -7 | -3 | -1 | i
Later entries
SMILES | UUG fidelity | CSC inhib | HIV Env fusion | PABP polyA inh | eIF4H inh | MT1-MMP act inh | MT1-MMP act inh RFP | Rce1 inh | others
CCC(C)(C)NC(=O)c1ccc2c(c1)S(=O)(=O)c1ccccc1C2=O | 9 | 5 | 3 | 14 | 1 | 3 | -1 | i
Cc1ccc(C)c(NC(=O)CCNS(=O)(=O)c2ccc3[nH]c(=O)oc3c2)c1 | -20 | -6 | -7 | 28 | 73* | 3 | 6 | i | eIF4H inh retest=73*;PABP polyA inh retest=14
O=C(O)c1cc(Cl)c(Cl)cc1C(=O)NCc1ccco1 | -9 | -15 | -29 | -4 | -5 | 3 | 2 | ·
CC(C)OCCCNC(=O)c1c(N)n(/N=C/c2ccccn2)c2nc3ccccc3nc12 | -1 | 37 | -40 | -2 | -9 | -12 | -9 | i
NC(=O)c1cc(-c2cccnc2)nc2ccc(Br)cc12 | -7 | 9 | 7 | 11 | -4 | 1 | 1 | i
CC(C)Cn1c(=O)c(-[n+]2ccccc2)c([O-])c2ccccc21 | -1 | -9 | 20 | 6 | 4 | 2 | 2 | i
CCCCCn1c(CNC(=O)c2cccs2)nc2ccccc21 | -17 | · | 24 | 0 | 13 | -8 | -10 | i
COc1ccc(/C=N/NC(=O)CN2CCCC2)cc1 | 1 | -16 | 1 | -2 | 2 | -1 | 0 | i
O=C(COc1ccc2ccc(=O)oc2c1)Nc1nccs1 | -23 | -6 | -12 | -3 | -9 | 2 | 3 | i
CCOC(=O)c1ccc(N/C=C/C(=O)c2ccc(OC)cc2)cc1 | 0 | 35 | · | 0 | 2 | 4 | 1 | i
CCCCC(=O)N/N=C/c1sccc1C | -12 | -4 | -12 | -16 | -4 | 2 | 2 | i

Reprinted at random: 2 entries already listed
SMILES | UUG fidelity | CSC inhib | HIV Env fusion | PABP polyA inh | eIF4H inh | MT1-MMP act inh | MT1-MMP act inh RFP | Rce1 inh | others
CNC(=O)c1[nH]cnc1C(=O)N[C@@H](CCCCNC(=O)OC(C)(C)C)C(=O)OC(C)(C)C | 6 | -10 | 3 | -4 | -14 | 1 | 3 | i
CC(C)Cn1c(=O)c(-[n+]2ccccc2)c([O-])c2ccccc21 | -1 | -9 | 20 | 6 | 4 | 2 | 2 | i

Screening data as filed in PubChem.
